RE007 growth inh: less growth of the S. pombe RE007 Vpr strain | Potency, µM (series often up to 92.2 µM), without a hit: at the top dose activity change, negative = less growth | S. pombe RE007 Vpr strain, BacTiter-Glo ATP luminescence, 24 h; control for the full effect not named in the record | 360,000 compounds, 0.21% hits; active = well fitted falling curve with a large enough effect; inconclusive = small, poorly fitted or top-dose-only effect; inactive = no such curve, though single readings can be large or run the other way;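 note: % is set by controls: 0 for no effect and ±100 for the full control effect; nearly all actives have a fitted effect of over 50% in size; the assay follows cell death caused by Vpr and the record does not say whether a fall means rescue or toxicity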
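Fission yeast strain RE007, carrying one chromosomally integrated HIV-1 vpr copy, was seeded at OD 0.01 in PMG+AL medium with 23 nL pinned compound. After 24 h at 30 °C and 99% humidity, viability was read by BacTiter-Glo luminescence.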
NS1 inh: inhibitors of influenza NS1 protein function | S. cerevisiae slowed by influenza A NS1, growth recovery by OD600 | 270,000 compounds, 0.4% hits | Potency, µM (series often up to 46.1 µM), inactives show top-dose activity, positive = more growth | AID 2326; active means well fitted rising curve with a large enough effect; inconclusive means small, poorly fitted or top-dose-only effect; inactive means no such curve, though single readings can be large or run the other way; note: nearly all actives have a fitted effect of over 50% in size
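Read-out: OD600 growth recovery of NS1-expressing budding yeast. Cells grown overnight at 30C in -URA glucose medium, washed, resuspended and diluted 1:100 in 2% galactose assay medium, pH 6.0. Same strain lacking NS1 served as positive control.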
Cruzain noTriton: cruzain (T. cruzi) inhibition without detergent; P25779; purified cruzain, Z-FR-AMC fluorescence, no detergent; Potency, µM, for the others: max response, negative = inhibition, actives largely listed as inhibitors; 200,000 compounds, 2.3% hits; AID 1476;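 note: plate controls were enzyme without inhibitor for no effect and buffer without enzyme for full effect; nearly all actives have a fitted effect of over 40% in size; top concentration of the series not given in the record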
Target sequence (P25779 123-467 limits assumed): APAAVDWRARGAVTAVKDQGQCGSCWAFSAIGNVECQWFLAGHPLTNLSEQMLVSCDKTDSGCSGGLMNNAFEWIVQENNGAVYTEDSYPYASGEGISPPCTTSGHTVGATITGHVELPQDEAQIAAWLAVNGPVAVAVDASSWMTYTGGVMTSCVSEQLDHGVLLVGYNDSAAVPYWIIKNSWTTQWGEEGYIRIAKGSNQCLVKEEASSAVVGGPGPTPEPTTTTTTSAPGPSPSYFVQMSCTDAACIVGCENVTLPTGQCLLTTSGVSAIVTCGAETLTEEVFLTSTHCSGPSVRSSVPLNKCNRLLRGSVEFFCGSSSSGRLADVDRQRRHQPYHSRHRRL
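Detergent-free condition (0.00005% Triton X-100) in acetate buffer pH 5.5 with DTT. 1.5 nM enzyme and compound were pre-mixed 15 min, then 2 uM Z-FR-AMC substrate added; reaction progress from fluorescence change between first and third reads (60 s).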
2A StopGo: FMDV 2A StopGo reporter, luciferase signal; human cells with a luciferase reporter of 2A StopGo recoding; control for the full effect not named in the record; Potency, µM (titrated, usually from 57.9 µM), inactives show at the top dose signal change, negative = less light; 410,000 compounds, 1.2% hits; AID 1159524; active = well fitted falling curve with a large enough effect; inconclusive = small, poorly fitted or top-dose-only effect; inactive = no such curve, though single readings can be large or run the other way; tested in HEK293T cells; note: % is set by controls: 0 for no effect and ±100 for the full control effect; nearly all actives have a fitted effect of over 45% in size; luciferase light after 4 h
SARS PLP yeast: inhibitors of SARS-CoV papain-like protease in yeast | S. cerevisiae expressing SARS-CoV PLpro, growth rescue; control for the full effect not named in the record | Potency, µM (series often up to 32.9 µM), for inactives: at the top dose activity, positive = growth rescue | 330,000 compounds, 0.19% hits; active means well fitted rising curve with a large enough effect; inconclusive means small, poorly fitted or top-dose-only effect; inactive means no such curve, though single readings can be large or run the other way; note: 0% is about no effect; nearly all actives have a fitted effect of over 55% in size; growth read by luminescence after 48 h
Lassa entry inh: Lassa virus entry inhibition. Lassa virus pseudotype entry inhibition, cell reporter; control for the full effect not named in the record. Potency, µM (titrated, usually from 37.9 µM), for the others: top-dose activity change, negative = inhibition, hits mostly inhibitors. 300,000 compounds, 1.2% hits; active means well fitted inhibition curve with a large enough effect; inconclusive means small, poorly fitted or top-dose-only effect, or effect the other way; inactive means flat fitted curve, though single readings scatter; tested in HEK293 cells; note: % is set by controls: 0 for no effect and ±100 for the full control effect; nearly all actives have a fitted effect of over 50% in size; luciferase read-out
Cruzain Triton: blocks cruzain activity in presence of Triton detergent | P25779 | purified cruzain, Z-FR-AMC fluorescence, 0.01% Triton | Potency, µM, without a hit: max response, negative = inhibition, actives largely listed as inhibitors | 200,000 compounds, 0.43% hits | AID 1478;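 note: plate controls were neutral wells for no effect and buffer without enzyme for full effect; nearly all actives have a fitted effect of over 40% in size; top concentration of the series not given in the record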
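Z-FR-AMC hydrolysis (2 uM substrate) by cruzain (1.5 nM) monitored kinetically at ex 360/em 450 nm after 15 min room-temperature compound exposure; 0.01% Triton X-100, pH 5.5, 5 mM DTT.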
Marburg entry inh: inhibitors of Marburg virus binding or cell entry; Potency, µM (titrated, usually from 37.8 µM), for the others: at the highest dose activity change, negative = inhibition, hits mostly inhibitors; 300,000 compounds, 1.8% hits; Marburg virus pseudotyped entry inhibition, cell reporter; control for the full effect not named in the record; about a third of the inactives were read at about 46 µM; AID 540276; active = well fitted inhibition curve with a large enough effect; inconclusive = small, poorly fitted or top-dose-only effect, or effect the other way; inactive = flat fitted curve, though single readings scatter; tested in HEK293 cells; about a fifth of its hits are not listed in these tables; note: % is set by controls: 0 for no effect and ±100 for the full control effect; luciferase read-out
Numbers without * were called inactive; ? = inconclusive; . = not tested or not shown; & = joins results of further samples; [ ] = dose if it differs, or a comment. Unless noted, calls come from the whole dose curve; as a rule, active = well fitted curve in the direction sought with a large enough effect; inconclusive = small, poorly fitted or top-dose-only effect, or another doubt; inactive = no such curve, though single readings can be large; an effect the other way counts as inactive or inconclusive. Potency is the fitted concentration of half-maximal effect.

A first look (3 entries):
SMILES | RE007 growth inh | NS1 inh | Cruzain noTriton | 2A StopGo | SARS PLP yeast | Lassa entry inh | Cruzain Triton | Marburg entry inh
C[C@@H]1NC(=O)c2cc([N+](=O)[O-])cc(F)c2NCCC[C@@H](C(N)=O)NC(=O)[C@H](CC(N)=O)NC1=O | -5% | -32% | -3% | -8% | -3% | 2% | -4.9% | 6%
Cc1ccc(NC(=S)N(CCCN2CCOCC2)Cc2ccco2)cc1 | -20% | 2% | . | -4% | 2% | 0%[46.1 µM] | . | 7%[46.1 µM]
CCC1=C(c2ccc(C)cc2)S(=O)(=O)N=C1N1CCC(C(=O)N2CCCCC2)CC1 | . | . | 7% | 1% | . | -5%[46.1 µM] | -4.5% | .

The whole of this part, previewed entries included:
SMILES | RE007 growth inh | NS1 inh | Cruzain noTriton | 2A StopGo | SARS PLP yeast | Lassa entry inh | Cruzain Triton | Marburg entry inh
C[C@@H]1NC(=O)c2cc([N+](=O)[O-])cc(F)c2NCCC[C@@H](C(N)=O)NC(=O)[C@H](CC(N)=O)NC1=O | -5% | -32% | -3% | -8% | -3% | 2% | -4.9% | 6%
Cc1ccc(NC(=S)N(CCCN2CCOCC2)Cc2ccco2)cc1 | -20% | 2% | . | -4% | 2% | 0%[46.1 µM] | . | 7%[46.1 µM]
CCC1=C(c2ccc(C)cc2)S(=O)(=O)N=C1N1CCC(C(=O)N2CCCCC2)CC1 | . | . | 7% | 1% | . | -5%[46.1 µM] | -4.5% | .
CSc1cccc(NC(=S)N2CCC(N(C)C3CCCCC3)CC2)c1 | -8% | . | . | -19% | 1% | -32% | . | -18%[46.1 µM]
CC1CN(C(=S)NC2CCCC2)CC(C)O1 (stereo not given) | 4% | 4% | . | -15% | 14% | ? | . | ?
Cc1ccc(-c2nc(SCC(=O)NCC3CCCO3)c(-c3ccccc3)[nH]2)cc1 (stereo not given) | 6% | 24% | -25% | -21% | 7% | -5% | -5.9% | -24%
COc1cccc(CNC(=O)c2ccc3c(c2)sc2nc(-c4ccccc4)cn23)c1OC | . | . | 11% | -10% | . | 24%[46.1 µM] | -0.9% | .
Cc1cccc(NC(=S)N(CCCN(C)C)Cc2cc3cc4c(cc3[nH]c2=O)OCO4)c1 | 5% | 0% | . | -18% | -1% | ? | . | ?
O=C(CN1C(=O)NC2(CCCC2)C1=O)NNC(=O)c1ccc(Br)cc1 | 26% | . | . | -1% | 3% | 0% | . | 29%
CN1C(=O)/C(=C\c2ccc(Br)s2)C(=O)NC1=S | -9% | 15% | . | 32µM* | 7% | 0%[46.1 µM] | . | ?
CC(=O)c1ccc(N2CCN(C(=O)CCS(=O)(=O)c3ccc4c(c3)NC(=O)CS4)CC2)cc1 | -1% | 21% | . | 0% | 4% | . | . | .
COC(=O)c1ccc(NC(=O)CSc2nnc(COc3c(C)cccc3C)o2)cc1 | 12% | 3% | 25µM* | -5% | -3% | 13% | 4.9% | ?
Cc1nc2ccc(C(=O)N/N=C/c3ccccc3O)cc2[nH]1 | 4% | -13% | . | 36%[activator] | 1% | ? | . | ?
O=C(CSc1nc2ccccc2[nH]1)NC1CCS(=O)(=O)C1 (stereo not given) | 45% | 11% | 1% | . | 2% | 25% | 0.1% | 16%
CC(=O)Nc1ccc(NC(=O)C(C)OC(=O)c2ccc(C)s2)cc1 (stereo not given) | 15% | 0% | . | -4% | 1% | -14% | . | -4%[46.1 µM]
COc1ccc(NC(=O)CSc2nc3[nH]ncc3c(=O)[nH]2)cc1OC | -6% | . | . | -8% | 2% | 14% | . | 23%
Cc1ccc(/C=C(\NC(=O)c2ccccc2)C(=O)NC(Cc2ccccc2)C(=O)O)cc1 (stereo not given) | 16% | 16% | -1% | -16% | 1% | 1% | -3.2% | ?
N#C/C(=C\c1ccncc1)C(N)=O | 88% | 6% | . | -6% | 0% | 0% | . | 2%
CC(CC(=O)N1CCN(C(=O)c2ccccc2)CC1)c1ccccc1 (stereo not given) | 13% | -4% | . | 1% | 1% | 29% | . | 6%
CCCCOc1ccc(Cl)cc1CSc1n[nH]c(C)n1 | -15% | -93% | -9% | ? | -32% | -26% | -2.8% | 0.21µM*
CCN1CCCC1CNCC(=O)Nc1ccc(OC(F)(F)F)cc1 (stereo not given) | 8% | -5% | . | -17% | 0% | 5% | . | 26%[46.1 µM]
CC1CCN(c2nc3ccc(C(=O)NCCCN4CCCCC4C)cc3s2)CC1 (stereo not given) | -9% | -7% | . | ? | 0% | . | . | .
COc1ccc(CC(=O)OCn2nnc3ccccc3c2=O)cc1OC | -1% | -2% | . | -10% | 2% | . | . | .
CC(C)(CO)NC(=O)C(c1ccccc1)c1ccccc1 | 11% | 0% | 2% | . | -6% | -1% | 4.0% | 7%
CCC(C)(C)C1CCC(=NNS(=O)(=O)c2ccc(C)c([N+](=O)[O-])c2)CC1 (stereo not given) | -3% | 0% | -11% | -11% | -8% | 0% | -1.3% | ?
CCCCC(=O)Nc1nc2c(s1)COc1ccccc1-2 | -10% | 15% | . | -2% | -9% | . | . | .
c1ccc(Cn2ncc3c(N4CCCCC4)ncnc32)cc1 | -9% | -18% | 8% | -29% | 5% | 4% | -0.7% | 6%
COc1ccc(NC(=O)CN2CCN(S(=O)(=O)c3ccc(C(C)C)cc3)CC2)cc1OC | -2% | -48% | ? | -24% | -2% | ? | -0.5% | 7%
CNNC(=S)NC1CC2CC1C1C=CCC21 (stereo not given) | 9% | 1% | . | 21% | -1% | . | . | .
CCC(C)NC(=O)Cn1c(=O)n(CCCCCC(=O)Nc2ccccc2)c(=O)c2sccc21 (stereo not given) | -16% | 7% | 1%&1% | 3%&10% | 0% | 30%[46.1 µM] | -6.0%&-2.2% | ?
FC(F)(F)c1ccc2c(c1)[nH]c(=S)n2C1CC1 | -13% | . | . | 0% | 22% | -2% | . | ?
CC(C)(C)n1ncc2c(=O)n(CC(=O)N3CCCCC3)cnc21 | 2% | -1% | . | 45%[activator] | 1% | -4% | . | 11%[46.1 µM]
NC(=O)COc1ncnc2scc(-c3ccc(F)cc3)c12 | -7% | . | . | -6% | 0% | 7% | . | -3%
Cc1ccc(C)c(N2CCN(C(=O)c3cc4c(=O)n(Cc5cccs5)ccc4nc3C)CC2)c1 | . | . | ? | 0% | . | ? | -12% | .
CC(C)(C)OC(=O)N1CCC(CC2CC(c3ccc(Cl)cc3)=NO2)(C(=O)NCC2CCCCC2)CC1 (stereo not given) | 3% | 28% | . | -20% | 24% | . | . | .
CCC1(c2ccc(F)cc2)NC(=O)N(CC(=O)Nc2ccc(C(N)=O)cc2)C1=O (stereo not given) | -2% | -5% | . | -11% | 0% | -8%[46.1 µM] | . | -13%[46.1 µM]
O=C(O)CC1(CC(=O)NCc2ccncc2)CCCCC1 | 11% | 7% | . | 0% | 1% | 20% | . | -12%
O=C(Nc1ccon1)c1cc(-c2ccccc2)nc2ccccc12 | 6% | -61% | -11% | ? | 3% | -3% | -7.2% | 8%
Cc1ccc(S(=O)(=O)N(C)C)cc1NC(=O)COC(=O)/C=C/c1ccc(F)cc1 | 19% | . | . | -15% | 0% | -3% | . | 13%
Cc1ccc2nc(-c3cccc(NC(=O)CSc4ccc(Cl)cc4)c3)oc2c1 | . | . | 8% | 3% | . | -1%[46.1 µM] | -0.9% | ?

Compound profiles (already shown). Order of screens: RE007 growth inh | NS1 inh | Cruzain noTriton | 2A StopGo | SARS PLP yeast | Lassa entry inh | Cruzain Triton | Marburg entry inh
CNNC(=S)NC1CC2CC1C1C=CCC21 (stereo not given) is entered as 9% | 1% | . | 21% | -1% | . | . | .
Cc1ccc(S(=O)(=O)N(C)C)cc1NC(=O)COC(=O)/C=C/c1ccc(F)cc1 is entered as 19% | . | . | -15% | 0% | -3% | . | 13%

(next part)
SMILES | RE007 growth inh | NS1 inh | Cruzain noTriton | 2A StopGo | SARS PLP yeast | Lassa entry inh | Cruzain Triton | Marburg entry inh
CCC(C)(C)n1nnnc1C(c1cc2cc(OC)ccc2[nH]c1=O)N1CCc2ccccc21 (stereo not given) | -19% | ? | 17% | -28% | 6% | ? | -7.8% | ?
CN(Cc1cccnc1)C(=O)CCCc1c[nH]c2ccccc12 | -6% | 5% | . | 18% | -1% | . | . | -1%[46.1 µM]
CCCSc1nnc(NC(=O)c2ccco2)s1 | -22% | . | . | 26% | -5% | -1%[46.1 µM] | . | ?
CCc1ccc(OC(C)C(=O)N(Cc2ccccc2)C2CCS(=O)(=O)C2)cc1 (stereo not given) | -9% | 1% | . | -9% | 0% | ? | . | -9%[46.1 µM]
Cc1cccc(C(=O)Oc2cc(C)[nH]c(=O)c2[N+](=O)[O-])c1 | 7% | -1% | . | -10% | -4% | . | . | .
CCOc1ccc(OCc2ccc(C(=O)NC(C)(C)C)o2)cc1 | 2% | -3% | . | 0% | -3% | ? | . | ?
O=C(Oc1ccc(N(C(=O)c2ccncc2)S(=O)(=O)c2ccc(Cl)cc2)cc1)c1ccncc1 | -6% | -72% | . | -4% | -1% | . | . | .
CC(C)c1cc(C(=O)N2CCCC(N3CCN(c4ccccc4F)CC3)C2)nc(N)n1 (stereo not given) | 4% | 21% | . | -19% | -2% | . | . | .
CCOC(=O)c1ccc(NC(=O)CN2C(=O)COc3ccc(Cl)cc32)cc1 | . | . | -14% | -10% | . | -27%[46.1 µM] | -4.7% | 9%[46.1 µM]
Nc1nc(-c2ccc(Cl)cc2)nc(-c2ccc(Cl)cc2)n1 | 2% | -4% | . | -16% | 0% | . | . | .
C=CCN1C(=O)C(Cc2ccc(Br)cc2)S/C1=N\N=C\c1ccco1 (stereo not given) | 11% | 0% | -2% | 12% | -5% | -15% | -2.8% | -42%
CCOCCn1c(SCC)nc2c1c(=O)[nH]c(=O)n2C | -1% | -4% | -5% | 9% | 0% | -1% | -4.1% | 14%[46.1 µM]
Cc1ccc(S(=O)(=O)N(CC(=O)Nc2cccc([N+](=O)[O-])c2)C2CCCCC2)cc1 | 10% | 18% | 4% | -7% | 0% | ? | -4.9% | ?

Screening data (PubChem BioAssay)
